KCNQ2 block = KCNQ2 potassium channel inhibitors, primary screen, cell-based, CHO-K1, FluxOR thallium flux, B-score (AID 2156). Potassium voltage-gated channel subfamily KQT member 2 (Rattus norvegicus), O88943. 20 min; active compounds read low; only compounds with negative scores are shown here; some inactives read as strong as hits. B-score at 10 µM. hit rate 1.1% among 310,000;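 active means fluorescence ratio B-score at most minus 3 library SDs, with starting brightness B-score within 2 library SDs, cut at about -5.5 in these data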
Target sequence (O88943 whole entry, looked up): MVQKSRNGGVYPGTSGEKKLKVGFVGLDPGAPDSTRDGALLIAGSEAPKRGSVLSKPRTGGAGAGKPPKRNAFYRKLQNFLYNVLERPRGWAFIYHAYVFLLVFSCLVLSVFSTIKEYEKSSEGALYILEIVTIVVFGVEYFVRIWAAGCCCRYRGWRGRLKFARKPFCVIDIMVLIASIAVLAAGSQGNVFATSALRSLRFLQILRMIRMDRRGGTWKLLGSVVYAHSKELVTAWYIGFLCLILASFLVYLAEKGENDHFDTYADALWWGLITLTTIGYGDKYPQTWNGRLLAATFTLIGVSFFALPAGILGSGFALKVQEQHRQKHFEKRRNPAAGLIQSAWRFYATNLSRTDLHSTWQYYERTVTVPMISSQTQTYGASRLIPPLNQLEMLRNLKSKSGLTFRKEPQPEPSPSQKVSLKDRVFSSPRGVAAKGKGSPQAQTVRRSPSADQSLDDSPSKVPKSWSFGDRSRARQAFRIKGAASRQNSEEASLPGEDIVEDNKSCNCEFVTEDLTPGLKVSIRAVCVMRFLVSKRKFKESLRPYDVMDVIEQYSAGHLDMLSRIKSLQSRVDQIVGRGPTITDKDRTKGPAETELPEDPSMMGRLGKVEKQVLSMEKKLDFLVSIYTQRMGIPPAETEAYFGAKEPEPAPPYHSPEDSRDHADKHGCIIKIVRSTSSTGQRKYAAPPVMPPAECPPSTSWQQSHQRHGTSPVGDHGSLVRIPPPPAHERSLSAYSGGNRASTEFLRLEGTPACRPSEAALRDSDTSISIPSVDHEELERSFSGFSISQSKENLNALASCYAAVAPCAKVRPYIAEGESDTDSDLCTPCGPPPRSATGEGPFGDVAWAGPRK
KCNQ2 block baseline = second read-out of KCNQ2 block, no call of its own (marks repeat the call); B-score; measured here: initial fluorescence intensity artifact check;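 brightness before thallium and not channel activity; 0 = typical well and far values either way flag optical interference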
* hit, by the source's call; i = inactive. Not all compounds are listed (hit frequency here may not be typical).

Value order – KCNQ2 block	KCNQ2 block baseline
O=C(Nc1ccc2c(c1)OCO2)C1CCN(S(=O)(=O)c2cccs2)CC1
 : i	-0.65
COc1ccccc1Oc1ccc(S(=O)(=O)N2CCCC2)cc1
 : i	-0.98
COc1ccc(C(=O)Cn2c(=O)oc3ccc(C)cc32)cc1
 : i	0.22
CS(=O)(=O)c1ccc(N2CCN(c3ccccn3)CC2)c([N+](=O)[O-])c1
 : i	0.03
O=C(CSc1cn(Cc2cccc(F)c2)c2ccccc12)NCc1ccc(F)cc1
 : i	-0.87
COc1cc(/C=N/NC(=O)c2ccc(CSc3nc4ccccc4[nH]3)cc2)ccc1O
 : i	-2.1
Cc1c(NCc2cc(Cl)cc(Cl)c2O)c(=O)n(-c2ccccc2)n1C
 : i	-0.1
COc1ccc(C(C(=O)NC2CCCC2)N2CCc3ccccc32)cc1 (stereo not drawn)
 : i	-1.3
CCOCCCNC(=O)C1(O)c2cc(Br)ccc2NC(=O)N1c1cccc(OC)c1 (stereo not drawn)
 : i	-1.7
O=S(=O)(/N=C(/Nc1cccc2ccccc12)c1ccccc1)c1ccc(F)cc1
 : i	-0.63
CN(C)CCNc1nc(-c2ccco2)c2c(c1C#N)CC(C)(C)OC2
 : i	0.34
COc1ccc2c(c1)cc1c(=O)n(CC(=O)NC(C)CCc3ccccc3)nc(C)n12 (stereo not drawn)
 : i	0.96
COc1ccccc1CN1CC(C(=O)NC2(c3ccccc3)CC2)CCC1=O (stereo not drawn)
 : i	-0.83
N=c1sccn1CC(=O)NC(c1ccccc1)c1ccccc1
 : i	-0.99
CCc1ccc(CCC(=O)Nc2ccc(C(C)=O)cc2)o1
 : i	-0.79
CCOc1ccccc1N(C(=O)CNC(=O)c1ccco1)C(C(=O)NC1CCCC1)c1cccnc1 (stereo not drawn)
 : i	1.9
CC(C)CC(=O)NC(NC(=S)Nc1cccc2cccnc12)C(Cl)(Cl)Cl (stereo not drawn)
 : i	0.14
C=CCOc1cccc(C2/C(=C(/O)c3ccc(C)cc3)C(=O)C(=O)N2CCN2CCOCC2)c1 (stereo not drawn)
 : i	-1.2
CCC(=O)N1CCc2cc(S(=O)(=O)NCCN3CCCCC3CC)ccc21 (stereo not drawn)
 : i	-1.6
COCCOC(=O)c1c(C)n(C)c2ccc(OC(=O)c3c(OC)cccc3OC)cc12
 : i	2.4
CN(C[C@H](Cc1ccccc1)N(C[C@H](Cc1ccccc1)N(CCC(C)(C)C)N=O)N=O)N=O
 : i	-2.1
Cc1occc1C(=O)NNC(=O)Nc1ccc(F)cc1F
 : i	-0.44
COc1ccc(N(CC(=O)NCc2ccc(F)cc2)S(=O)(=O)c2c(C)noc2C)cc1
 : i	1.9
CCCCN1C(=O)C(C)=C(C)C1OCCc1ccc(OC)c(OC)c1 (stereo not drawn)
 : i	0.01
O=Cc1ccccc1-n1cccn1
 : i	-1.2
Nc1ccccc1Sc1nc2ccccc2[nH]1
 : i	0.5
NC(=O)c1ccc(NC(=O)CCC(=O)N2CCN(S(=O)(=O)c3ccc(Cl)cc3)CC2)cc1
 : i	0.43
COC(=O)[C@H]1C[C@@H]1[C@H](NC(=O)c1ccccc1)c1ccccc1
 : i	0.59
Cc1cnc(C(=O)N2CCCC(C(=O)c3cccc(OC(C)C)c3)C2)cn1 (stereo not drawn)
 : i	0.4
CN(CCC(=O)c1ccccc1)CCC(=O)c1ccccc1
 : i	0.75

Given with bars between the fields: part of the list above
molecule | KCNQ2 block | KCNQ2 block baseline
O=C(CSc1cn(Cc2cccc(F)c2)c2ccccc12)NCc1ccc(F)cc1 | i | -0.87
O=C(Nc1ccc2c(c1)OCO2)C1CCN(S(=O)(=O)c2cccs2)CC1 | i | -0.65

(more compounds)
Value order – KCNQ2 block	KCNQ2 block baseline
COc1ccc(N2CCN(C(c3ccccc3)c3sc4nc(C)nn4c3O)CC2)cc1 (stereo not drawn)
 : i	1.4
O=C(CSc1nnc(-c2ccccc2)n1Cc1ccco1)Nc1ccc2c(c1)OCCO2
 : i	1.9
O=c1oc2ccccc2n1CSC1=NCCS1
 : i	0.18
C=CCNc1nc(Cl)nc(Nc2ccccc2)n1
 : i	1.3
CCCOC(=O)C1=C(C)NC(=O)NC1c1ccc(Br)s1 (stereo not drawn)
 : i	1.5
C=CCOC(=O)C1=C[C@@H](c2ccc3c(c2)OCO3)C[C@@H](OCc2ccc(CO)cc2)O1
 : i	-1
CCOc1ccc2nc(SCC(=O)NCc3ccc(S(N)(=O)=O)cc3)sc2c1
 : i	0.11
O=C(N/C=C\c1ccccc1)NCc1ccc(Cl)cc1Cl
 : i	-2
COc1ccc(S(=O)(=O)N2CCC(NC(=O)C3CCCCC3)CC2)cc1
 : i	-1.1
C=CCSc1nc2ccccc2c(=O)[nH]1
 : i	-1.4
O=C(c1ccc(F)cc1)c1cc2ccccc2o1
 : i	-0.81
Cn1c(=O)cc(SCC(=O)NCc2ccc(F)cc2)c2ccccc21
 : i	-1.5
O=C1CCC/C(=N\NC(=O)NC2CCCCC2)C1
 : i	0.13
CCn1cc(C(=O)NN)c(=O)c2cc(F)c(N3CCN(C)CC3)cc21
 : i	-0.13
Cc1noc(C)c1CSCC(=O)Nc1cc(S(=O)(=O)N2CCCCC2)ccc1OC(C)C
 : i	0.07
Cc1cc(S(=O)(=O)N(Cc2ccc3c(c2)OCO3)CC2CCCO2)ccc1-n1cnnn1 (stereo not drawn)
 : i	-0.13
O=C(Nc1nccs1)c1sc2cc(Cl)ccc2c1Cl
 : i	0.24
CCNc1nc(NC(C)C)nc(OCCOC(=O)c2ccccc2)n1
 : i	-0.05
Cc1sc(NC(=O)/C=C/c2ccc(C(C)C)cc2)c(C#N)c1C
 : i	2.3
CC12CCC(C(=O)Nc3c(Cl)cccc3Cl)(C(Br)C1=O)C2(C)C (stereo not drawn)
 : i	0.73
Cc1cccc(-c2nc3c(c(SCC(=O)N4CCOCC4)n2)COC(C)(C)C3)c1
 : i	0.84
COc1ccc(Nc2c3c(nc4ccccc24)CCC3)c(OC)c1
 : i	-0.01
CC1CC(C)CN(C2CCCCC2NS(=O)(=O)c2ccc(Cl)cc2)C1 (stereo not drawn)
 : i	0.04
CCOc1ccccc1N1CCN(C(=O)Nc2cccc(Cl)c2)CC1
 : i	3.5
CCOc1cccc2cc(C(=O)Oc3ccc(OC)cc3)c(=O)oc12
 : i	-1.1
N#CCOC(=O)c1sccc1-n1cccc1
 : i	0.97
O=C(CSc1nncc2ccccc12)Nc1ccc(C(=O)O)cc1
 : i	-0.32
CC(C)Cn1c(=O)c2c(nc3n2CC(C)CN3Cc2ccccc2)n(C)c1=O (stereo not drawn)
 : i	-0.04
COc1ccc(C(=O)NCCS(=O)(=O)N2CCc3ccccc3C2)c(OC)c1
 : i	0.79
Cc1cnc(C(=O)OCC(=O)Nc2ccc(Oc3ccccc3)cc2)cn1
 : i	-0.38

Look-ups from the entries so far.
KCNQ2 block baseline with Cc1cc(S(=O)(=O)N(Cc2ccc3c(c2)OCO3)CC2CCCO2)ccc1-n1cnnn1 (stereo not drawn) reads -0.13
KCNQ2 block baseline with CC1CC(C)CN(C2CCCCC2NS(=O)(=O)c2ccc(Cl)cc2)C1 (stereo not drawn) reads 0.04
KCNQ2 block baseline with CN(C[C@H](Cc1ccccc1)N(C[C@H](Cc1ccccc1)N(CCC(C)(C)C)N=O)N=O)N=O reads -2.1

Whole records, looked up by structure. Screens in order: KCNQ2 block	KCNQ2 block baseline
O=S(=O)(/N=C(/Nc1cccc2ccccc12)c1ccccc1)c1ccc(F)cc1 as listed: i	-0.63
CCNc1nc(NC(C)C)nc(OCCOC(=O)c2ccccc2)n1 as listed: i	-0.05
COc1ccc(S(=O)(=O)N2CCC(NC(=O)C3CCCCC3)CC2)cc1 as listed: i	-1.1
COc1ccc(N2CCN(C(c3ccccc3)c3sc4nc(C)nn4c3O)CC2)cc1 (stereo not drawn) as listed: i	1.4
CCc1ccc(CCC(=O)Nc2ccc(C(C)=O)cc2)o1 as listed: i	-0.79

(list continues)
Value order – KCNQ2 block	KCNQ2 block baseline
CCOC(=O)c1sc(NC(=O)CCC(=O)O)nc1C
 : i	-0.74
O=C(NCc1ccco1)c1ccc2c(c1)N(Cc1ccccc1)C(=O)CS2=O (stereo not drawn)
 : i	0.49
CCOc1cccc(NC(=O)Cn2nc(-c3ccc4c(c3)OCCO4)ccc2=O)c1
 : i	1.8
O=C(NC(=O)c1ccccc1)NC1(C(F)(F)F)OCCO1
 : i	-0.78
CCCc1cc(Nc2ccccc2)n2ncnc2n1
 : i	0.89
COc1cccc(CN(C)C(=O)c2cc(-c3ccc(OC)c(OC)c3)nc3ccccc23)c1
 : -6*	-0.62*
O=C(NCc1ccc2c(c1)OCO2)C1CCCN1C(=O)Nc1cccc(F)c1 (stereo not drawn)
 : i	-0.85
Cc1cc(NC(=O)COC(=O)CNC(=O)c2cccs2)c([N+](=O)[O-])cc1C
 : i	0.09
CC(C)CCC(C)NC(=O)c1ccc2nccnc2c1 (stereo not drawn)
 : i	2.3
CCOCCCNC(=O)c1cc(=O)n(Cc2cccc(C)c2)c2ccccc12
 : i	-1.1
O=C(CSc1nc2ccccc2[nH]1)N1CCN(c2ccc(F)cc2)CC1
 : i	0.19
CS(=O)(=O)N(CC(=O)NCCC1=CCCCC1)c1cccc([N+](=O)[O-])c1
 : i	1.5
COC(=O)c1cc(OC)c(OC)cc1NC(=O)c1cc(-c2ccccc2)nc2ccccc12
 : i	-1.9
Cc1cccc(NC(=O)c2ccc(C3SCC(=O)N3CCc3ccccc3)cc2)c1 (stereo not drawn)
 : i	-3.8
CC1C(=O)N2CCCc3cc(S(=O)(=O)Nc4ccccc4C(N)=O)cc1c32 (stereo not drawn)
 : i	0.87
COc1cccc(N2C(=O)N(c3ccccc3)C3CS(=O)(=O)CC32)c1 (stereo not drawn)
 : i	-0.67
COCCCn1c(-c2cccs2)nc2nc3ccccc3nc21
 : i	-0.08
O=C(Nc1ccccc1)C1CCOC1=O (stereo not drawn)
 : i	0.87
O=C(N[C@@H](Cc1ccccc1)C(=O)N1CCC2(CC1)NCCc1[nH]cnc12)c1cccc(Br)c1
 : i	0.4
O=C(O)CCn1c(C2CCCCC2)nc2ccccc21
 : i	-0.41
COc1cccc(NC(=O)CN(C)CC(=O)Nc2ccc3c(c2)CCC3)c1
 : i	-0.22
CN(C(=O)c1ccc(S(=O)(=O)c2cccc(Cl)c2)c([N+](=O)[O-])c1)C1CCCCC1
 : i	0.81
COC(=O)c1ccc(NC(=O)CSc2nnc(-c3ccccc3Br)n2-c2ccccc2)cc1
 : i	0.46
Cc1ccccc1CS(=O)(=O)c1nnc([C@H](Cc2ccccc2)NC(=O)OC(C)(C)C)o1
 : i	-0.03
CCCCC(CC)CNS(=O)(=O)c1ccc2c(c1)CCN2C(=O)CCC(=O)O (stereo not drawn)
 : i	-0.55
CCCCN(C)C(=O)C1CCN(Cc2cccnc2)CC1
 : i	0.61
CC(C)(C)CC(C)(C)NC(=S)NC1CCN(Cc2ccccc2)CC1
 : i	0.82
COc1ccc(S(=O)(=O)N2CCN(C(=O)CCC3CCCC3)CC2)cc1
 : i	0.02
CCc1ccc(NC(=O)Cn2ncc3c4ccccc4n(C)c3c2=O)cc1
 : i	0.42
COc1ccccc1/C=C/CN1CCCC(CCC(=O)NCc2ccccc2F)C1 (stereo not drawn)
 : i	2.9
CC1(C)S[C@@H]2[C@H](NC(=O)COc3ccccc3)C(=O)N2C1C(=O)OCc1ccccc1 (stereo partly drawn)
 : i	0.93
CCN(CC)CCCn1c2c(c(SCC(=O)Nc3ccc4c(c3)OCO4)nc1=O)CCC2
 : i	1.3
N#CC(c1cccc(C(F)(F)F)c1)(c1ncc(C(F)(F)F)cc1Cl)N1CCOCC1 (stereo not drawn)
 : i	-1.2
CC1CCN(C(=O)CN(c2ccc(Cl)c(C(F)(F)F)c2)S(C)(=O)=O)CC1
 : i	0.03
CC(=O)c1ccc(OCCNS(=O)(=O)c2ccc(-n3cnnn3)cc2)cc1
 : i	-2.2
Cc1nc(C)c(-c2ccc(SCC(=O)Nc3ccc(C)c(Cl)c3)nn2)s1
 : i	1.2
O=C(NCCCn1ccnc1)C(=O)NCC1OCCCN1S(=O)(=O)c1ccc(F)cc1 (stereo not drawn)
 : i	-0.21
COC(=O)c1ccc(S(=O)(=O)c2ccc(C(=O)OC)s2)s1
 : i	1.9
CCN(CC)c1ccc(NC(=O)c2cc(OC)cc(OC)c2)c(C)c1
 : i	-2.7
CC1CC1c1ccc(/C=C(\C#N)C(=O)Nc2ccc(Cl)cc2Cl)o1 (stereo not drawn)
 : i	1.2
O=C(O)C1Sc2[nH]c(=O)sc2C2c3cc(Br)ccc3OC(=O)C12 (stereo not drawn)
 : i	0.36
COc1ccc(OCCN2C(=O)c3ccccc3C2=O)c([N+](=O)[O-])c1
 : i	-2.7
COc1ccc(NC(=O)c2ccccc2NC(=O)c2ccccc2C(=O)O)c(OC)c1
 : i	-0.04
Cc1cc(C)n(/N=C/c2ccc(O)cc2)c(=O)c1C#N
 : i	-1.4
COc1ccccc1C(=O)N1CCN(c2cccc(C(F)(F)F)c2)CC1
 : i	-0.07
Cc1ccccc1OCC(=O)N1CCCc2ccccc21
 : i	-0.78
O=C(O)COCC(=O)Nc1ccc2c(c1)ncn2CCc1ccccc1
 : i	-0.2
O=C(NCC1(c2ccccc2)CCCC1)C(=O)NCC1(c2ccccc2)CCCC1
 : i	0.75
Cc1nnc2c(NCCc3ccccc3)nc3ccccc3n12
 : i	-0.08
CCOC(=O)C1=C(C)NC(=S)NC1c1ccc(OCC(=O)N2CCCCC2)cc1 (stereo not drawn)
 : i	1.1
CC(C)OCCCNC(=O)C(=O)NCCCOC(C)C
 : i	-0.45
COc1cccc(OCc2nc(-c3ccc(Br)o3)no2)c1
 : i	0.17
CC(Cc1ccccc1)NC(=O)/C=C/c1ccc([N+](=O)[O-])cc1 (stereo not drawn)
 : i	1.1
COC(=O)c1ccc(C(=O)N(CCN(C)C)c2nc3c(Cl)cccc3s2)cc1
 : i	0.58
Cc1c(N2CCCC2)cc2c(c1N)C(C)(C)CC2(C)C
 : i	-0.51
